Calb biofilm kill: mixtures killing C. albicans biofilm; inhibition, % at 7.6 µM; AID 1242; C. albicans biofilm persisters + clotrimazole, fluorescence viability; primary screen in compound mixtures of four per well; hit rate 0.02% among 120,000;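 active = inhibition above 30.3% in the primary screen of four-compound pools, then above 30% when the compound was retested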;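 also: compounds exposed to preformed 24 h biofilms for 48 h; the number belongs to the whole pool; some results filed as inactive read as strong as hits; inactives centre near 12; 0% = biofilm with clotrimazole alone and 100% = kill control; retested singly at about 60 µM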
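Probe or stimulus – Clotrimazole 50 µg/mL co-treatment · System – C. albicans biofilms · Schedule – 24 h biofilm formation, then 48 h compound exposure, 37 °C · Evaluation – percent inhibition of biofilm viability · Technique – 2-h Alamar Blue fluorescence, 535/590 nm excitation/emission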
The depositor's hits bear a star.

SMILES	Calb biofilm kill
CCN(CC(=O)Nc1ccc(C(C)=O)cc1)CC(=O)Nc1ccccc1C(F)(F)F	10
N#CCCN(Cc1cccnc1)C(=S)NC(=O)c1ccc(S(=O)(=O)N2CCCC2)cc1	6
CC(C)(C)C(=O)Nc1ccc2c(c1)OCCOCCOc1cc(NC(=O)C(C)(C)C)ccc1OCCOCCO2	6
c1ccc(Oc2ccc3ccccc3n2)cc1	12
CC(N=C1CC(C)(C)CC(=O)/C1=C(/O)CCCN1C(=O)c2ccccc2C1=O)C(=O)O (stereo unspecified)	14
COc1cccc(OC)c1C(=O)Nn1c(-c2cccc(C)c2)nc2ccccc2c1=O	11
OCCNC(=S)Nc1cccc(Cl)c1Cl	12
Cc1csc(NC(=O)Nc2ccc(Cl)cc2)n1	14
COc1cc(/C=N/Nc2nc(Nc3ccccc3)nc(N3CCOCC3)n2)ccc1OC(=O)c1ccco1	13
O=C(N/N=C/c1cccs1)c1cccc(S(=O)(=O)Nc2ccc(Cl)cc2)c1	16
CN1N=C(C(C)(C)C)CSC1=Nc1ccccc1	14
O=C1c2ccccc2C(=O)C1c1ccnc2ccccc12	6
O=C(OCc1nnc(-c2ccccc2)o1)c1cc([N+](=O)[O-])ccc1Cl	3
CC(OC(=O)CCCc1nc2ccccc2s1)C(=O)NC(N)=O (stereo unspecified)	26
Cc1c(C(=O)O)cccc1-n1c(C)cc(/C=N/NC(=O)c2cc3ccccc3o2)c1C	18
Cn1cnnc1Sc1cc(N2CCN(S(=O)(=O)c3ccccc3)CC2)ccc1[N+](=O)[O-]	20
CNc1nc(-c2ccccc2)nc(-c2ccc(OC)cc2)c1C#N	4
COc1cccc(/C=C/C(=O)NCc2cn3cc(Cl)ccc3n2)c1	15
O=c1[nH]c(CN2CCCC2)nc2sc3c(c12)CCC3	-9
CCOC(=O)NNC(=O)NCCCCCCNC(=O)NNC(=O)OCC	16
CC(C)N1C(=O)S/C(=C/c2ccccc2OCc2ccc(C(=O)O)cc2)C1=O	11
CNC(=S)NNC(=O)c1oc2nc(-c3ccccc3)cc(-c3ccco3)c2c1N	6
Cc1sc2nc(CSc3ccccc3)nc(N3CCC(C(N)=O)CC3)c2c1C	3
S=C(NCC1CCCO1)Nc1cccc(Cl)c1 (stereo unspecified)	12
O=C(O)CCC(=O)NNc1ncnc2ccccc12	13
SMILES	Calb biofilm kill
COc1cc(C(c2c(C)[nH][nH]c2=O)c2c(C)[nH][nH]c2=O)ccc1OC(C)C	8
O=C(Cc1cccs1)N1CCN(c2cccc(Cl)c2)CC1	5
Cc1ccc([N+](=O)[O-])cc1S(=O)(=O)N(C(=O)c1ccncc1)c1ccc2oc3c(c2c1)CCCC3	3
COc1cc(C(=O)NCc2nnc(SCC(=O)Nc3nc4ccc(C)cc4s3)o2)cc(OC)c1OC	-1
O=C(CCC(=O)c1ccc(F)cc1)Nc1cccc(S(=O)(=O)Nc2cccc(Cl)c2)c1	8
CCN1CCc2nc3ccccc3c(C(=O)Nc3ccc(C#N)cc3)c2C1	2
CCCOc1ccc(Br)cc1CSC(=N)N	17
CCOC(=O)Cc1csc(NC(=S)NC(=O)c2cc(OC)c(OC)c(OC)c2)n1	5
C/C=C/c1ccc(OCC(O)CN2CCCCCCC2)c(OC)c1 (stereo unspecified)	13
COc1cccc2sc(Nc3nc4ccc(NC(C)=O)cc4s3)nc12	13
CC(=O)Oc1ccc(/C=C2\N=C(C3CCCCC3)OC2=O)cc1	29
CCOc1ccccc1N(CC(=O)Nc1c(C)n(C)n(-c2ccccc2)c1=O)S(=O)(=O)c1ccccc1	2
CC(=O)Nc1cccc(NC(=O)Nc2ccc(F)cc2F)c1	5
CC1(C)C2CCC1(C)C(Nc1ccccc1)C2 (stereo unspecified)	6
O=C(c1ccco1)c1coc2c1cc(O)c1ccccc12	5
Cc1cccc(N(CC(=O)NCc2ccc(F)cc2)C(=O)c2csnn2)c1C	13
COc1cccc(/C=N/NC(=O)CNC(=O)c2ccc(S(=O)(=O)N3CCCC3)cc2)c1OC	13
O=C(CNc1cc(S(=O)(=O)N2CCCC2)ccc1OCC(F)(F)F)Nc1cccc(C(F)(F)F)c1	7
COC(=O)c1ccc(NC(=S)NCC2CC2)cc1	15
Cc1ccc(S(=O)(=O)c2nnn3c2nc(N2CCCCC2)c2ccccc23)cc1	8
S=c1[nH]nc(Cc2ccccc2)n1-c1cccc2ccccc12	7
O=C(CN1C(=O)C(c2ccc(F)cc2)=NC12CCCC2)Nc1ccc(F)cc1	13
CC(C)c1cccc(C(C)C)c1NC(=O)COC(=O)C1=COCCO1	12
O=C(CCc1nnc(-c2ccc(-c3ccccc3)cc2)o1)N1CCCCC1	4
O=C(Nc1nc(N2C(=O)c3ccccc3C2=O)n(-c2ccccc2)n1)c1ccccc1	10
SMILES	Calb biofilm kill
CS/C(=C\[N+](=O)[O-])Nc1ccc(C)cc1	7
COc1cc(CC(=O)Nc2ccccc2N2CCOCC2)cc(OC)c1OC	-4
CC(NC(=O)Cc1cccs1)c1ccccc1 (stereo unspecified)	23
CN(C(=O)CSc1nc2ccccc2s1)c1c(N)n(Cc2ccccc2)c(=O)[nH]c1=O	13
Cc1ccc(CNC(=O)CN(c2cccc([N+](=O)[O-])c2)S(C)(=O)=O)cc1	5
CC1(c2ccccc2)NC(=O)N(CC#N)C1=O (stereo unspecified)	8
Cc1c(C#N)c(=O)c(-[n+]2ccccc2)c([S-])n1-c1ccc(Cl)cc1	8
N#C/C(=C\c1cc2ccccc2nc1N1CCOCC1)C(=O)Nc1ccc(N2CCOCC2)cc1	11
CC(C)CC(NC(=O)c1ccccc1NC(=O)c1ccccc1)C(=O)O (stereo unspecified)	-3
Cc1ccc(NS(=O)(=O)c2ccc(OCC(=O)NCc3ccncc3)cc2)cc1	19
O=C(O)Cc1c(C(=O)O)nnn1-c1ccc(Cl)cc1Cl	7
COc1ccc([N+](=O)[O-])cc1NC(=O)C(C)OC(=O)c1ccccc1C(=O)c1ccc(Cl)cc1 (stereo unspecified)	4
O=C(O)c1ccccc1SCc1nc2ccccn2c1Br	29
Cc1ccc(NC(=O)c2ccc3c(c2)C(=O)N(CC2CCCO2)C3=O)cc1C (stereo unspecified)	14
O=C(c1ccc(OC2CCN(Cc3ccccn3)CC2)cc1)N1CCCCO1	2
O=c1c(Br)c(Br)cnn1-c1ccccc1	-14
O=C(CN1CC(=O)Nc2ccccc21)Nc1ccc(F)c(F)c1	17
Cc1nc(Cl)c(C#N)c2c1CCCC2	15
CCOc1ccccc1N(CC(=O)NCCOC)C(=O)CCC(=O)Nc1ccccn1	16
COc1ccc(C2=C(Nc3ccccc3)c3ccccc3C2=O)cc1	11
N#Cc1c(NC(=O)CCCC(=O)O)sc2c1CCCCC2	-3
Cc1ccc(N(C(=O)Cc2cccs2)C(C(=O)NCC2CCCO2)c2ccncc2)cc1 (stereo unspecified)	14
O=C(NN1CCOCC1)c1cc(-c2ccncc2)nc2ccccc12	8
CCCNC(=O)CSc1nnc(-c2ccccc2Br)n1-c1cccc(C(F)(F)F)c1	12
CC(=O)N1CCN(c2ccc([N+](=O)[O-])cc2)CC1	8

Random excerpt: 5 entries already listed, in no set order.
SMILES	Calb biofilm kill
O=C(NN1CCOCC1)c1cc(-c2ccncc2)nc2ccccc12	8
O=C(c1ccc(OC2CCN(Cc3ccccn3)CC2)cc1)N1CCCCO1	2
CC(NC(=O)Cc1cccs1)c1ccccc1 (stereo unspecified)	23
Cc1nc(Cl)c(C#N)c2c1CCCC2	15
Cc1ccc(CNC(=O)CN(c2cccc([N+](=O)[O-])c2)S(C)(=O)=O)cc1	5

Next part:
SMILES	Calb biofilm kill
CCCNC(=O)C1CC(c2ccc(C(F)(F)F)cc2)=NO1 (stereo unspecified)	12
CC(=O)NC(Cc1c[nH]c2ccccc12)C(=O)OCC(=O)N1CCCCCC1 (stereo unspecified)	9
O=C(COc1ccccc1)NCC(=O)Nc1cccc2ccccc12	17
O=C(Nc1ccccc1F)N1CCCC1c1cccnc1 (stereo unspecified)	16
CCC(=O)OCC(=O)Nc1cc([N+](=O)[O-])ccc1Cl	14
O=C(COC(=O)Cc1ccsc1)Nc1ccc(Cl)c(S(=O)(=O)N2CCOCC2)c1	10
CCOc1ccc(-n2c(C)cc(C(=O)NS(=O)(=O)c3ccc(C)cc3)c2C)cc1	14
Cc1ccc(S(C)(=O)=NC(=O)c2cc(C)on2)cc1 (stereo unspecified)	23
CCOc1ncnc2c1sc1nc(C)cc(C)c12	5
Cc1cc(C)nc(/N=C(\N)Nc2ccccc2-c2ccccc2)n1	2
O=C(CC(c1ccccc1)c1ccccc1O)NCc1ccccc1 (stereo unspecified)	14
COc1ccc2c(=O)cc(-c3ccccc3F)oc2c1	17
CCC(=O)Nc1cc(C(F)(F)F)ccc1N1CCCC1	0
COc1ccc(-n2cc(-c3ccccc3)c3c(=O)[nH]cnc32)cc1	7
Cc1ccc2nc(Cl)c(/C=C/C(=O)c3ccco3)cc2c1	12
Cn1c(N)c(C(=O)COC(=O)c2cc(C(F)(F)F)nc3ccccc23)c(=O)n(C)c1=O	13
COC(=O)C(CC(=O)O)NCc1ccco1 (stereo unspecified)	9
CC1(C)CC(=O)C/C(=N\NC(=S)NCc2ccccc2)C1	0
N#CC1=C2N=C(N)c3ccccc3N2C2=C(C(=O)CCC2)C1c1ccc(Cl)cc1 (stereo unspecified)	10
CCOc1ccc(OCC(O)CNC2CCN(Cc3ccccc3)CC2)cc1 (stereo unspecified)	20
COc1cccc(C(=O)OCC(=O)NCCc2ccccc2)c1OC	17
COc1cc(OC)c2ccc(=O)oc2c1C(CCN1CCCC1)c1ccc(N(C)C)cc1 (stereo unspecified)	9
CCC(C)(C)n1nnnc1CN1CCC(NC(=O)c2ccccc2C)CC1	8
CCOC(=O)CCCSc1nc(-c2ccc3c(c2)OCO3)cc(C(F)(F)F)c1C#N	15
Cc1cc(C)c(N=C2SCC(=O)N2Cc2ccco2)c(C)c1	25

The list goes on (2 carried over from the part before).
SMILES	Calb biofilm kill
CCOC(=O)CCCSc1nc(-c2ccc3c(c2)OCO3)cc(C(F)(F)F)c1C#N	15
Cc1cc(C)c(N=C2SCC(=O)N2Cc2ccco2)c(C)c1	25
COC(=O)Nc1ccc(S(=O)(=O)N2CCCC(C(=O)N3CCC(C)CC3)C2)cc1 (stereo unspecified)	2
O=C(NCCCn1ccnc1)c1cc2cc([N+](=O)[O-])ccc2oc1=O	3
COc1ccc2c(c1)c1ccc3c(c1n2C)C(=O)C=CC3=O	28
COc1ccc(-c2csc3nc(C(C)(C)C)oc(=O)c23)cc1OC	0
C/C(=N\OC(=O)c1c(-c2ccccc2Cl)noc1C)c1nccs1	-13
CC(NC(=O)c1ccc(S(=O)(=O)C(F)F)cc1)c1ccccc1 (stereo unspecified)	1
O=c1[nH]c2ccccc2nc1/C=C/c1ccc(O)cc1	22
Cc1cccc(C)c1NC(=O)CSC(=O)c1sc2ccccc2c1Cl	6
COc1ccc(S(=O)(=O)Nc2cccc(/C=C/C(=O)O)c2)cc1	13
COc1ccc2nc(SCC(=O)N3CCN(c4ccc(F)cc4)CC3)c(C#N)cc2c1	13
CC(C)C(NC(=O)c1ccccc1)C(=O)NCCc1ccccc1 (stereo unspecified)	2
CC(=O)c1ccc(N2CCN(C(C)C(=O)NC3CCCc4ccccc43)CC2)cc1 (stereo unspecified)	19
S=C(NCCN1CCOCC1)Nc1cccc(Cl)c1	4
COc1ccc(/C=C2\SC(=S)N(CCC(=O)NC3=NCCS3)C2=O)cc1OC	16
Cc1nn(C)c(C)c1Sc1ccccc1N	12
NS(=O)(=O)c1ccc(CCNC(=O)C2CCN(S(=O)(=O)c3ccc(Br)s3)CC2)cc1	1
CCOC(=O)c1c(NC(=O)c2cccnc2Cl)sc(C(=O)N(C)C)c1C	1
O=C(Cc1nc2ccccc2[nH]c1=O)c1ccccc1	8
O=C(Nc1c(-c2cccs2)nc2ccccn12)c1ccccc1F	12
CCN1CCN(CC(=O)Nc2cc(C)on2)CC1	15
Cc1cc(=O)oc2cc(OCC(=O)N3CCN(C(=O)c4ccco4)CC3)ccc12	2
COc1ccc(C2=NN(c3ccccc3)C(=O)/C2=C\c2ccc(O)c(OC)c2)cc1	15
COC(=O)[C@H](Cc1c[nH]c2ccccc12)NC(=O)Nc1ccccc1OC	15
O=C(O)c1ccc(N/N=C/c2ccc(-c3cccc(Cl)c3)o2)cc1	22
Cc1noc(C)c1/C=N/Nc1ccccn1	16
Cc1ccc(COc2cccc3c2CCN(Cc2ccc(F)cc2)C3=O)cc1	12
COc1ccc(C(=O)CSc2nnc(CN3CCCCC3)n2-c2ccc(Cl)cc2)cc1OC	12
O=C(COc1cccnc1[N+](=O)[O-])NCCc1ccc(Cl)cc1Cl	13

Part of the list above in another layout.
SMILES | Calb biofilm kill
CCOC(=O)c1c(NC(=O)c2cccnc2Cl)sc(C(=O)N(C)C)c1C | 1
O=C(Cc1nc2ccccc2[nH]c1=O)c1ccccc1 | 8
O=C(Nc1c(-c2cccs2)nc2ccccn12)c1ccccc1F | 12
CCN1CCN(CC(=O)Nc2cc(C)on2)CC1 | 15
Cc1cc(=O)oc2cc(OCC(=O)N3CCN(C(=O)c4ccco4)CC3)ccc12 | 2

Another view of part of the listing above.
Structure | Calb biofilm kill
COc1ccc(-c2csc3nc(C(C)(C)C)oc(=O)c23)cc1OC | 0
C/C(=N\OC(=O)c1c(-c2ccccc2Cl)noc1C)c1nccs1 | -13

The list is partial, so the mix of outcomes need not match the whole.
